MARV entry inh: qHTS for inhibitors of binding or entry into cells for Marburg Virus | Marburg virus pseudotyped entry inhibition, cell reporter; control for the full effect not named in the record; about a third of the inactives were read at about 46 µM | Potency, µM (doses to about 37.8 µM), for the others: at the highest dose activity change, negative = inhibition, usual class: inhibitors | 1.8% of 300,000 active; active = well fitted inhibition curve with a large enough effect; inconclusive = small, poorly fitted or top-dose-only effect, or effect the other way; inactive = flat fitted curve, though single readings scatter; tested in HEK293 cells; about a fifth of its hits are not listed in these tables; also: luciferase read-out
RE007 growth inh: qHTS Assay for Inhibitors of the HIV-1 protein Vpr | Potency, µM (highest dose often 92.2 µM), without a hit: top-dose activity change, negative = less growth | 0.21% of 360,000 active | S. pombe RE007 Vpr strain, BacTiter-Glo ATP luminescence, 24 h; control for the full effect not named in the record; active = well fitted falling curve with a large enough effect; inconclusive = small, poorly fitted or top-dose-only effect; inactive = no such curve, though single readings can be large or run the other way;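 also: nearly all actives have a fitted effect of over 50% in size; the assay follows cell death caused by Vpr and the record does not say whether a fall means rescue or toxicity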
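Fission yeast strain RE007, carrying one chromosomally integrated HIV-1 vpr copy, was seeded at OD 0.01 in PMG+AL medium with 23 nL pinned compound. After 24 h at 30 °C and 99% humidity, viability was read by BacTiter-Glo luminescence.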
Lassa entry inh: qHTS for Inhibitors of binding or entry into cells for Lassa Virus. Lassa virus pseudotype entry inhibition, cell reporter; control for the full effect not named in the record. Potency, µM (top dose mostly 37.9 µM), for inactives: at the top dose activity change, negative = inhibition, most hits filed as inhibitors. 1.2% of 300,000 active; active means well fitted inhibition curve with a large enough effect; inconclusive means small, poorly fitted or top-dose-only effect, or effect the other way; inactive means flat fitted curve, though single readings scatter; tested in HEK293 cells; also: nearly all actives have a fitted effect of over 50% in size; luciferase read-out
2A StopGo: High Throughput Screening for Foot and Mouth Disease Virus Antivirals | human cells with a luciferase reporter of 2A StopGo recoding; control for the full effect not named in the record | Potency, µM (doses to about 57.9 µM), for inactives: top-dose signal change, negative = less light | 1.2% of 410,000 active | AID 1159524, 2015; active = well fitted falling curve with a large enough effect; inconclusive = small, poorly fitted or top-dose-only effect; inactive = no such curve, though single readings can be large or run the other way; tested in HEK293T cells; also: nearly all actives have a fitted effect of over 45% in size; luciferase light after 4 h
* = called active by the depositor; u = inconclusive; x = no result given; [ ] = remark or other dose. % is scaled to controls: 0 for no effect and ±100 for the full control effect; potency is read from the fitted curve at half-maximal effect.

SMILES | MARV entry inh | RE007 growth inh | Lassa entry inh | 2A StopGo
CSc1ncc(C(=O)Nc2ccccc2C(=O)c2ccccc2)c(C)n1 | x | x | -25.3%[46.1 µM] | 2.7%
Cc1cc(Nc2cccc(C(F)(F)F)c2)nc2ccc(NC(=O)c3cccnc3)cc12 | x | x | u | 28.2µM*
Cc1ccc(CNS(=O)(=O)c2ccc3[nH]c4c(c3c2)CCCC4)cc1 | x | x | -1.6%[46.1 µM] | 14.2%
CCOC(=O)c1ccc(NC(=O)C(Cc2ccccc2)N2Cc3ccccc3C2=O)cc1 (stereo not given) | x | x | 11.8%[46.1 µM] | 4.0%
CN(Cc1ccccc1)C(=O)c1ccc(CSc2nc3cccnc3n2Cc2ccccc2F)cc1 | x | x | -18.4%[46.1 µM] | u
O=C(NCc1cccs1)c1ccc(Cn2c(SCc3ccc(F)cc3)nc3cccnc32)cc1 | x | x | -15.3%[46.1 µM] | -21.8%
CCCS(=O)(=O)N1CC(=O)N(c2ccccc2C)C(C)(C(=O)NC2CCCCC2)C1 (stereo not given) | x | x | -5.2%[46.1 µM] | 10.2%
CCCCn1cc(S(=O)(=O)c2ccc(C)c(C)c2)c(=O)c2cc(F)c(N3CCCC(C)C3)cc21 (stereo not given) | x | x | 1.3%[46.1 µM] | 0.3%
CCc1ccc(NC(=O)CSc2nc3ncccc3[nH]2)cc1 | x | x | 2.1%[46.1 µM] | 3.6%
COc1ccc(Nc2ncnc3c2nc2n3CCCCC2)cc1 | x | x | 21.8%[46.1 µM] | 26.6%
O=C(Nc1ccc(F)c(F)c1)C(c1ccccc1)N1Cc2ccccc2C1=O (stereo not given) | x | x | 10.0%[46.1 µM] | 37.4%[activator]
CCNC(=O)Cn1c(-c2cccs2)cc2ccccc21 | x | x | 0.2%[46.1 µM] | -6.6%

In another format: results already given
| mol | MARV entry inh | RE007 growth inh | Lassa entry inh | 2A StopGo |
| --- | --- | --- | --- | --- |
| CSc1ncc(C(=O)Nc2ccccc2C(=O)c2ccccc2)c(C)n1 | x | x | -25.3%[46.1 µM] | 2.7% |
| Cc1cc(Nc2cccc(C(F)(F)F)c2)nc2ccc(NC(=O)c3cccnc3)cc12 | x | x | u | 28.2µM* |
| Cc1ccc(CNS(=O)(=O)c2ccc3[nH]c4c(c3c2)CCCC4)cc1 | x | x | -1.6%[46.1 µM] | 14.2% |
| CCOC(=O)c1ccc(NC(=O)C(Cc2ccccc2)N2Cc3ccccc3C2=O)cc1 (stereo not given) | x | x | 11.8%[46.1 µM] | 4.0% |
| CN(Cc1ccccc1)C(=O)c1ccc(CSc2nc3cccnc3n2Cc2ccccc2F)cc1 | x | x | -18.4%[46.1 µM] | u |
| O=C(NCc1cccs1)c1ccc(Cn2c(SCc3ccc(F)cc3)nc3cccnc32)cc1 | x | x | -15.3%[46.1 µM] | -21.8% |
| CCCS(=O)(=O)N1CC(=O)N(c2ccccc2C)C(C)(C(=O)NC2CCCCC2)C1 (stereo not given) | x | x | -5.2%[46.1 µM] | 10.2% |
| CCCCn1cc(S(=O)(=O)c2ccc(C)c(C)c2)c(=O)c2cc(F)c(N3CCCC(C)C3)cc21 (stereo not given) | x | x | 1.3%[46.1 µM] | 0.3% |
| CCc1ccc(NC(=O)CSc2nc3ncccc3[nH]2)cc1 | x | x | 2.1%[46.1 µM] | 3.6% |
| COc1ccc(Nc2ncnc3c2nc2n3CCCCC2)cc1 | x | x | 21.8%[46.1 µM] | 26.6% |
| O=C(Nc1ccc(F)c(F)c1)C(c1ccccc1)N1Cc2ccccc2C1=O (stereo not given) | x | x | 10.0%[46.1 µM] | 37.4%[activator] |
| CCNC(=O)Cn1c(-c2cccs2)cc2ccccc21 | x | x | 0.2%[46.1 µM] | -6.6% |

(list continues)
SMILES | MARV entry inh | RE007 growth inh | Lassa entry inh | 2A StopGo
Cc1ccc(-c2cc(C(=O)N3CCN(S(=O)(=O)c4ccc(Br)cc4)CC3)[nH]n2)cc1C | x | x | -4.4%[46.1 µM] | -6.4%
CCCn1c2ccccc2c2cnn(CC(=O)N3CCC(C(=O)OCC)CC3)c(=O)c21 | x | x | -18.4%[46.1 µM] | -14.2%
Cc1cc(Cl)ccc1NS(=O)(=O)c1ccc2c(c1)CC(C)N2C(=O)C1CCC1 (stereo not given) | x | x | -21.1%[46.1 µM] | -7.3%
COc1ccc(Nc2cc(C)c3cc(NC(=O)c4cc(OC)cc(OC)c4)ccc3n2)cc1 | x | x | -16.9%[46.1 µM] | -4.8%
COc1cccc(CNC(=O)CN2C(=O)CCCc3ccccc32)c1OC | x | x | 8.1%[46.1 µM] | 7.8%
Cc1cccc(NC(=O)N2CCC(CN3CCOCC3)CC2)c1C | x | x | 20.1%[46.1 µM] | -12.9%
CCOC(=O)c1ccc(NC(=O)COCc2cc(-c3ccc4c(c3)OCO4)on2)cc1 | x | x | u | -23.5%
CCOc1ccc(CCNC(=O)c2ccc(-n3c(C)cc4c3CCC(C)C4)cc2)cc1OCC (stereo not given) | x | x | u | -20.5%
COc1ccc(N2CCN(C(=O)c3cc(NS(=O)(=O)c4ccc(F)cc4)ccn3)CC2)cc1 | x | x | 23.5%[46.1 µM] | -3.5%
O=C(c1nc(-c2ccc(Cl)cc2)n2c1CCCCC2)N1CCN(c2ccccc2F)CC1 | x | x | -11.7%[46.1 µM] | -14.0%
CCOC(=O)C1=C(CN2CCCCC2)NC(=O)NC1c1ccc(OC)cc1 (stereo not given) | x | x | 3.0%[46.1 µM] | -10.4%
COc1ccc(C)cc1NC(=O)N(Cc1ccc(C)o1)C1CCN(C(C)=O)CC1 | x | x | 8.4%[46.1 µM] | -19.1%
O=C(Cn1c(SCc2ccccc2F)nc2cccnc21)Nc1ccc(F)c(Cl)c1 | x | x | 9.9%[46.1 µM] | -6.9%
Cc1cccc(CCNC(=O)C2CCN(c3ncnc4c3nc3n4CCCCC3)CC2)c1 | x | x | u | -15.2%
Cc1cccc(N2CCN(C(=O)Cn3ncc4c([nH]c5ccccc54)c3=O)CC2C)c1 (stereo not given) | x | x | -2.7%[46.1 µM] | -20.8%
Cc1c(Cl)cccc1NC(=O)N1CCC(CN2CCOCC2)CC1 | x | x | 27.7%[46.1 µM] | 0.7%
CCCCN(C)C(=O)CN1C(=O)c2cccnc2Oc2ccc(Cl)cc21 | x | x | -21.3%[46.1 µM] | 8.0%
COc1ccc(Cn2c(SCc3ccc(C(=O)NC4CCCCC4)cc3)nc3cccnc32)cc1 | x | x | u | u
O=C(Cn1c(-c2cccs2)cc2cc(F)ccc21)NCCCN1CCN(c2ccccc2F)CC1 | x | x | u | -28.9%
Cc1ccc(C)c(N2CCN(CCCNC(=O)Cn3ncc4c([nH]c5ccccc54)c3=O)CC2)c1 | x | x | 8.7%[46.1 µM] | -14.1%
COc1ccc(CCNC(=O)C2CCN(c3ncnc4c3nc3n4CCCCC3)CC2)c(OC)c1 | x | x | -6.2%[46.1 µM] | -7.0%
CCc1ccc(S(=O)(=O)c2cn(C)c3cc(N4CCC(C)CC4)c(F)cc3c2=O)cc1 | x | x | 24.2%[46.1 µM] | -16.0%
Fc1ccccc1N1CCN(c2ncnc3c2nc2n3CCCC2)CC1 | x | x | -2.3%[46.1 µM] | u
COc1ccc(-c2cn3nc(N4CCCC(C(=O)NCc5ccccc5OC)C4)sc3n2)cc1 (stereo not given) | x | x | 9.2%[46.1 µM] | 30.5%[activator]
Cc1cccc(S(=O)(=O)c2cn(Cc3ccccc3)c3cc(N4CCC(C)CC4)c(F)cc3c2=O)c1 | x | x | -1.4%[46.1 µM] | -8.0%
O=C(c1cc(-c2ccc(Br)cc2)n[nH]1)N1CCN(S(=O)(=O)c2ccc(Br)cc2)CC1 | x | x | 3.5%[46.1 µM] | -16.1%
Cc1ccc(-c2nc(Cn3c(SCc4ccc(F)cc4)nc4cccnc43)c(C)o2)cc1 | x | x | -22.7%[46.1 µM] | -23.9%
O=C(Cn1cc(S(=O)(=O)Cc2cccc(Cl)c2)c2ccccc21)Nc1ccccc1C(F)(F)F | x | x | -0.3%[46.1 µM] | 2.0%
CSc1ncc(C(=O)Nc2c(C)cccc2C)c(-c2ccccc2)n1 | x | x | 12.8%[46.1 µM] | -21.8%
O=C(NCc1cccs1)c1ccc(Cn2c(SCc3cccc(F)c3)nc3cccnc32)cc1 | x | x | u | -6.9%
CCOc1ccc(C(=O)Nc2ccc3nc(Nc4cccc(C(F)(F)F)c4)cc(C)c3c2)cc1OCC | x | x | -0.2%[46.1 µM] | 0.0%
Cc1cccc(S(=O)(=O)c2cn(C)c3cc(N4CCN(c5ccc(F)cc5)CC4)c(F)cc3c2=O)c1 | x | x | 7.4%[46.1 µM] | 12.6%
CCc1ccc(S(=O)(=O)c2cn(Cc3ccccc3)c3cc(N4CCCC4)c(F)cc3c2=O)cc1 | x | x | 11.3%[46.1 µM] | 6.4%
Cc1ccccc1CNC(=O)C1CCN(c2nn3cc(-c4ccc(F)cc4)nc3s2)CC1 | x | x | 7.2%[46.1 µM] | 23.9%
CCN1CCN(c2cc3c(cc2F)c(=O)c(S(=O)(=O)c2ccc(OC)cc2)cn3CC)CC1 | x | x | 20.3%[46.1 µM] | 14.8%
CCN(CCCNC(=O)Cn1ncc2c([nH]c3ccccc32)c1=O)c1cccc(C)c1 | x | x | 24.0%[46.1 µM] | -8.6%
COc1cccc(CNC(=O)c2ccc(-n3c(C)cc4c3CCCC4)cc2)c1 | x | x | u | -9.5%
CCCn1c2ccccc2c2cnn(CC(=O)N(CCCOC(C)C)Cc3ccco3)c(=O)c21 | x | x | u | u
O=C(CCCN1C(=O)c2cccnc2Oc2ccc(Cl)cc21)NCc1ccccc1F | x | x | -0.5%[46.1 µM] | 3.3%
Cc1ccccc1NC(=O)C(Cc1ccccc1)N1Cc2ccccc2C1=O (stereo not given) | x | x | 4.4%[46.1 µM] | -2.3%
CCc1ccccc1NC(=O)CC(C)S(=O)(=O)c1ccc2c(c1)NC(=O)CO2 (stereo not given) | x | x | 10.9%[46.1 µM] | -7.0%
CCCSCCCNC(=O)Cn1c(-c2cccs2)cc2ccccc21 | x | x | 1.1%[46.1 µM] | -16.5%
O=C(Cn1c(-c2cccs2)cc2ccccc21)NCCCN1CCN(c2ccccc2F)CC1 | x | x | u | -18.5%
CCCCn1cc(S(=O)(=O)c2cc(C)ccc2C)c(=O)c2cc(F)c(N3CCC(C)CC3)cc21 | x | x | u | 13.2%
COc1ccc(CCNC(=O)c2nc(-c3ccc(Cl)cc3)n3c2CCCCC3)c(OC)c1 | x | x | -13.2%[46.1 µM] | u
CCOc1ccc(NC(=O)N2CCC(CN3CCC(C)CC3)CC2)cc1 | x | x | 10.8%[46.1 µM] | -6.4%
CCN1CCC(N(Cc2ccc3c(c2)OCO3)C(=O)Nc2cc(F)ccc2F)CC1 | x | x | -17.9%[46.1 µM] | 5.4%
CCN1CCN(C(=O)Cn2c(-c3cccs3)cc3ccccc32)CC1 | x | x | u | -18.0%
COc1ccc(OC)c(NC(=O)C2=C(C)C(=O)OC23CCCCCC3)c1 | x | x | 5.6%[46.1 µM] | -19.2%
COC(=O)c1ccccc1NC(=O)Cn1cc(S(=O)(=O)Cc2ccccc2F)c2ccccc21 | x | x | 27.0%[46.1 µM] | -4.6%
CCOC(=O)c1ccccc1NC(=O)CSc1nc2ncccc2[nH]1 | x | x | 3.6%[46.1 µM] | -15.8%
CCOC(=O)c1ccccc1NC(=O)C1CCN(c2ncnc3c2nc2n3CCCCC2)CC1 | x | x | 23.2%[46.1 µM] | 4.1%
Cc1cc2[nH]c(=O)c(=O)[nH]c2cc1S(=O)(=O)Nc1cccc(C(F)(F)F)c1 | x | x | 3.5%[46.1 µM] | 4.2%
CN(Cc1ccccc1)C(=O)c1ccc(CSc2nc3cccnc3n2Cc2ccccc2)cc1 | x | x | u | u
O=C(/C=C/Nc1cccc([N+](=O)[O-])c1)c1ccco1 | u | -15.3% | -17.0% | x
N#C/C(=C\c1cccc2ccccc12)c1nn(-c2ccccc2)c(N)c1C#N | u | 6.9% | u | x
N#CCC(CNc1ncc(C(F)(F)F)cc1Cl)OC(=O)c1c(F)cccc1F (stereo not given) | -2.4% | 1.6% | 0.5% | x
CC1=CC2OC3CC4OC(=O)C=CC=CC(C(C)O)OCC(O)C(C)CC(=O)OCC2(CC1O)C4(C)C31CO1 (stereo not given) | -71.8% | -13.1% | x | x

This is a subset; the hit share may differ from the screen's.
